Screens (PubChem)
AID504770: growth inhibition of E. coli YBA685, primary screen, V. cholerae RctB inhibitors; E. coli YBA685 rctB-dependent plasmid, OD600 growth, 3 h; hits give low values; z-score (test concentration not listed); 130,000 compounds, 0.27% hits; AID 504770, 2011;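 active = z-score under -2 on both plates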;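 note: wells of about 30 µL received 100 nL stock; score is relative to mean and SD of the test wells; the first replicate is given; strong numbers were not always called active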
Ba CapD inh: Bacillus anthracis CapD inhibitors, primary screen, biochemical, fluorescence intensity; CapD gamma-glutamyltranspeptidase (Bacillus anthracis Ames Ancestor); purified CapD enzyme, fluorescence intensity read-out; hits give low values; some hits fall short of the stated cut; z-score (concentration not given with the values); 140,000 compounds, 0.23% hits; AID 492967, 2010;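 active = z-score under -4 in either of two replicates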;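 note: stock transfer was 100 nL into about 40 µL; score is relative to mean and spread of the plate; one replicate is shown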
The depositor's hits bear a star; / = no result given; & = joins results of further samples.

Results follow in this order: AID504770 | Ba CapD inh
1: COc1cc(C=C2C(=O)NC(=S)NC2=O)cc(OC)c1OC
    / | -1
2: CC12CC3CC(C)(C1)CC(C(=O)NO)(C3)C2
    -0.2 | -0.18
3: CCOc1ccc(/C=C2\SC(=S)N(CCC(=O)Nc3cc(C)on3)C2=O)cc1
    / | -0.06
4: CCCN1CCC(N(C2CC2)S(=O)(=O)c2ccc(NC(=O)c3cccs3)cc2)CC1
    / | -0.21
5: c1ccc(CC2CCN(CCCNc3nc4ccccc4n4nnnc34)CC2)cc1
    0.9 | 14
6: Cc1ccsc1/C=C1/C(=O)/C(=C/c2sccc2C)C2CCC1N2C
    -0.95 | -1.7
7: O=C(O)CCCOc1cccc(Br)c1
    1.3 | -0.26
8: N#C/C=C(\N)c1ccc(Oc2ccc(Cl)c(F)c2)cc1
    0.25 | 0.31
9: Cc1sc2ncnc(N3CCN(Cc4ccccc4)CC3)c2c1-c1ccc(F)cc1
    1.7 | -0.25
10: CCn1c2ccccc2c2cc(CN3CCC(NS(=O)(=O)c4ccc(Cl)s4)C3)ccc21 (centres undefined)
    / | 8.8
11: CCC1Oc2ccc(Cl)cc2N(CC(=O)NCCc2ccccc2)C1=O (centres undefined)
    0.4 | -1
12: Cn1c(SCC(=O)O)nnc1-c1ccc(N)cc1
    / | 0.31
13: CC(=O)c1ccc(NC(=O)CSc2nc3ccccc3o2)cc1
    / | 0.01
14: N#CCNC(=O)OCc1ccccc1
    -0.05 | -0.11
15: CN1CCN(C(=O)/C=C\C(=O)O)CC1
    1 | /
16: CN(C)C(Cc1ccc(C#N)cc1)C(=O)c1ccccc1 (centres undefined)
    1.6 | /
17: COC(=O)c1cc(S(=O)(=O)Nc2cccc(-c3cnco3)c2)oc1C
    -0.85 | 0.34
18: O=C(COCC1CCCN2CCCCC12)Oc1ccccc1 (centres undefined)
    0.9 | 1.7
19: Cc1cc(Oc2ccccc2)nc(-c2ccc(Br)cc2)n1
    -0.1 | 0.11
20: CCOC(=O)CN1C(=O)S/C(=C/c2cc(OC)c(O)cc2Br)C1=O
    1.6 | -0.45
21: COc1ccc(C2CC(c3ccc(Br)cc3)=NN2C(=O)CCCC(=O)O)cc1OC (centres undefined)
    / | -0.39
22: Cc1ccc(CNC(=O)CCCn2c(=O)c3ccccc3n(CC(=O)N3CC(C)CC(C)C3)c2=O)cc1 (centres undefined)
    -0.85 | 0.56
23: Cc1cc(C)nc(NNc2ccccc2)n1
    0 | /
24: Cc1ccc(NC(=O)C2CCCN(S(=O)(=O)c3ccccc3)C2)cc1 (centres undefined)
    -1 | -0.01
25: CCOC(=O)c1cccc(NC(=O)CS(=O)(=O)Cc2nc(-c3ccc(C)cc3)oc2C)c1
    -0.6 | -0.39
26: O=C(NCCc1cccc(Cl)c1)OCCCCc1ccccc1
    / | -0.12
27: COc1ccccc1Nc1ncc(C(=O)N2CCN(c3ccc(F)cc3)CC2)c2ccccc12
    0.4 | 1.4
28: CCOC(=O)C(Cc1ccccc1)C(=O)O (centres undefined)
    -0.35 | 0.035
29: CCOC(=O)Cc1csc(NC(=O)c2ccc(Br)cc2F)n1
    1.2 | 0.49
30: COc1ccc(/C(N)=C/C2=NC(C)(C)CO2)cc1
    0.05 | -3.4

Shown screen by screen: three of the compounds above
30) COc1ccc(/C(N)=C/C2=NC(C)(C)CO2)cc1
25) CCOC(=O)c1cccc(NC(=O)CS(=O)(=O)Cc2nc(-c3ccc(C)cc3)oc2C)c1
16) CN(C)C(Cc1ccc(C#N)cc1)C(=O)c1ccccc1 (centres undefined)

entry no.,30,25,16
AID504770,0.05,-0.6,1.6
Ba CapD inh,-3.4,-0.39,/

(further entries)
Results follow in this order: AID504770 | Ba CapD inh
31: O=C(Cn1c(=O)oc2ccccc21)NCCN1CCc2ccccc2C1
    -0.95 | 1.1
32: Cc1nc2c3ccccc3[nH]c(=O)n2n1
    -1.1 | /
33: CN(Cc1cccs1)S(=O)(=O)c1ccc2c(c1)OCCO2
    -0.1 | /
34: COc1ccc(N2C(N)=C(C#N)C(c3cc(OC)c(OC)c(OC)c3)C3=C2CCCC3=O)cc1 (centres undefined)
    / | -0.02
35: O=C(CCS(=O)(=O)c1ccccc1)Nc1ccc2c(c1)OCCO2
    -0.85 | -0.29
36: CCOc1ccc(-n2c(O)c(C=NCCCN3CCOCC3)c3ccccc3c2=O)cc1
    -0.1 | /
37: Cc1ccc(C)n1-c1ccc(C(=O)NNC2=NCCC2)s1
    -0.65 | /
38: O=C1OCCC1Sc1nnc(-c2ccccc2)n1-c1ccc(Cl)cc1 (centres undefined)
    1.7 | /
39: CN(C(=O)CSc1nc(-c2ccccc2)cs1)C1CCS(=O)(=O)C1 (centres undefined)
    1.6 | /
40: Cc1cc(SCC(=O)c2ccccc2)nc(=O)[nH]1
    2 | /
41: N#C/C=C/N(C#N)c1ccccc1
    -0.95 | -1.5
42: Fc1ccccc1/C=C/c1ccncc1
    -1.1 | /
43: C=C1SC(=Nc2cccc(OC)c2)N(C(=O)C(c2ccccc2)C2CCCC2)C1(C)C (centres undefined)
    / | -0.4
44: CC(N)Cc1ccccc1 (centres undefined)
    / | 0.24
45: CC(=O)NC(=O)/C(=C(/C)Nc1ccccc1)c1ccccc1
    0.8 | -0.87
46: COCc1cc(OC(=O)N(C)C)nc(Cc2c(Cl)cccc2Cl)n1
    -0.35 | 0.55
47: O=C(NO)c1csc(-c2cccnc2)n1
    -0.35 | -0.44
48: COc1cc(C2C3=C(CCCC3=O)OC3=C2C(=O)CCC3)ccc1OCc1ccccc1
    / | 0.32
49: COC(=O)c1cnn(-c2ccccc2)c1/C=N/O
    0.5 | 0.21
50: O=C1CCCC2=C1C(c1cccs1)C1C(=O)c3ccccc3C1=N2 (centres undefined)
    -0.55 | -1.1
51: O=C(CN1C(=O)S/C(=C\c2ccccc2)C1=O)Nc1nccs1
    0.2 | 0.42
52: O=C(COCc1nc(-c2cnccn2)no1)N1CCN(Cc2ccccc2)CC1
    / | -0.27
53: Cn1ccc(-c2ccccc2)n1
    -0.65 | /
54: Cc1nn(-c2ccccc2)nc1C(=O)NNC(=O)Cc1nc(-c2ccccc2)sc1C
    / | 0.15
55: Cc1ccc(NC(=O)c2ccccc2NC(=O)c2sc3ccccc3c2Cl)c(C(=O)c2ccccc2)c1
    / | -0.15
56: NCCSC1CC(=O)N(c2ccc(Cl)cc2)C1=O (centres undefined)
    -1.1 | /
57: O=C(C1CCCC1)N1CCCC1c1nc2ccccc2s1 (centres undefined)
    -0.5 | /
58: O=C1c2ccccc2C(=O)c2c(NS(=O)(=O)c3ccc(CCCl)cc3)cccc21
    / | 0.77
59: Oc1ccccc1N=Cc1ccccc1
    -0.5 | /
60: Cn1c(=O)c2c(nc(N3CCCC3)n2CCSc2nc3ccccc3s2)n(C)c1=O
    -1.4 | -0.72
61: CC(C)CN(CC(C)C)C(=O)CCn1c(=O)oc2ccccc21
    -0.4 | 0.24
62: COc1ccc(OC)c(CNC(=O)CN2Cc3ccccc3C2=O)c1
    -0.1 | 0.36
63: O=C(NCCc1ccccn1)c1cc(C(=O)C2CCCCC2)c[nH]1
    -0.6 | -0.15
64: Nc1nc(SCCSc2ccc(F)cc2)n[nH]1
    -1 | /
65: O=C(CN1CC(C(=O)N2CCOCC2)Oc2ccccc21)Nc1ccc2c(c1)CCC2 (centres undefined)
    -0.25 | /
66: CCOC(=O)c1nc2ccccc2c(C)c1C
    -1.1 | -0.98
67: COc1cc(C2C(C(=O)OCC3CCCO3)=C(C)NC3=C2C(=O)CC(c2cccs2)C3)cc([N+](=O)[O-])c1O (centres undefined)
    / | -1.3
68: O=C(CN1C(=O)/C(=C/c2ccccc2)Sc2ccccc21)NC1CCCC1
    0.4 | -2.3
69: COc1ccc(S(=O)(=O)N2CCCC2C(=O)n2nc(C)cc2C)cc1 (centres undefined)
    -0.25 | -0.49
70: CC(Sc1cccc(C(F)(F)F)c1)C(=O)NC(N)=O (centres undefined)
    -0.55 | /
71: COc1cc2c(C(=O)N3CCC4(CC3)OCCO4)cn(CC(C)C)c(=O)c2cc1OC
    -0.35 | 0.53
72: N#Cc1cc(-c2ccccc2)cn(Cc2cccc(C(F)(F)F)c2)c1=O
    / | 28
73: C=CCN(CC=C)S(=O)(=O)c1ccc(C(=O)Nc2nnc(-c3cc(C)ccc3C)o2)cc1
    0.45 | /
74: CCOC(=O)C1=C(C)N=c2s/c(=C\c3cc4c(cc3Cl)OCO4)c(=O)n2C1c1ccc(OC)cc1 (centres undefined)
    / | -0.18
75: O=S(=O)(c1cccc2nonc12)N1CCN(c2ccccc2F)CC1
    / | -0.38
76: Fc1cccc(-c2csc(-c3ccno3)n2)c1
    0.7 | 2.7
77: O=C(c1ccc(CN2C(=O)CCn3nccc32)cc1)N1CCOCC1
    1.4 | 0.02
78: O=C(CN1C(=O)c2ccccc2S1(=O)=O)NCc1ccncc1
    -0.3 | -0.095
79: O=C(Oc1ccccc1-c1nc(-c2ccccc2)no1)c1ccccc1
    0.2 | /
80: Cc1nc2ccccc2c(=O)n1CCNc1cccc2ccccc12
    0.15 | 3.1
81: O=S(=O)(c1ccccc1)N1CCN(Cc2ccccc2)CC1
    -0.3 | /
82: Cc1nc(N2CCN(c3ccccn3)CC2)c2c(C)c(C(=O)N3CCN(c4ccccc4)CC3)sc2n1
    / | -0.26
83: CCOc1cc(CNC2CN3CCC2CC3)ccc1OCc1ccccc1 (centres undefined)
    0.25 | 0.17
84: CC(C)NCC(O)COc1ccc(C(C)(C)C)cc1 (centres undefined)
    -0.3 | -0.55
85: COC(=O)c1cc(S(=O)(=O)NCCc2ccccc2)c[nH]1
    -1.2 | -0.94
86: CCOC(=O)C(C)Sc1nnc(NC(=O)C2CC2)s1 (centres undefined)
    -0.9 | -0.47
87: COc1cc(NC(=O)c2ccccc2)c(C(=O)O)cc1OC
    / | 0.26
88: Cn1c(=O)n(Cc2ccccc2)c(=O)c2c1nc1n2CCCN1c1cccc(Cl)c1
    -0.75 | /
89: O=c1c2ccc(NCCO)c3cccc(c32)c2nc3ccccc3n12
    / | -0.21
90: CCn1cc(C(=O)OCC(=O)Nc2ccc(OC)cc2)c(=O)c2ccc(C)nc21
    2.1 | -0.49

(continued)
Results follow in this order: AID504770 | Ba CapD inh
91: Cc1csc(N(C(=O)CSc2nc(C3CC3)n(-c3ccccc3)n2)c2ccccc2)n1
    1.4 | /
92: COC(=O)c1ccc2c(=O)[nH]c(COC(=O)c3ccc4c(c3)OCO4)nc2c1
    0.9 | /
93: CCN1CCN(C(=O)CCC(=O)c2cccs2)CC1
    -0.7 | /
94: O=c1c(O)c(-c2ccc(O)c(O)c2)oc2cc(O)cc(O)c12
    1.4 | -0.13&94
95: C/C(=N\OC(=O)c1cccc(C(F)(F)F)c1)c1csc(-c2ccno2)n1
    0.25 | 0.75
96: NC(=O)C(Cc1ccccc1)N1C(=O)c2ccccc2C1=O (centres undefined)
    0 | /
97: COc1ccc(Cn2c(CCC(=O)O)nc3cccnc32)cc1
    -0.2 | 0.33
98: OCc1cnn(-c2ccccc2)c1
    -0.2 | /
99: NS(=O)(=O)c1ccc(N(C(=O)Cn2nnc3ccccc32)C(C(=O)NC2CCCC2)c2cccs2)cc1 (centres undefined)
    0.3 | /
100: O=S(=O)(Cc1ccc(Cl)cc1)Nc1ccc2c(c1)OCCO2
    -0.6 | 0.89
101: O=C(Nc1ccccc1)OC1CCCCc2cccnc21 (centres undefined)
    -0.2 | 0.45
102: COC(=O)C(N)CS (centres undefined)
    -0.3 | -0.14
103: CC(=O)OC1N=C(c2ccccc2)c2ccccc2NC1=O (centres undefined)
    / | -0.74
104: COc1ccc(N2C(=O)C(O)=CC2(OC)c2ccccc2)cc1 (centres undefined)
    1.4 | -4.5*
105: C#CCn1nnc2ccccc21
    -0.3 | 2
106: CN1CCN(C(=O)C(Cc2ccccc2)NC(=O)c2ccccc2NC(=O)c2ccccc2)CC1 (centres undefined)
    / | 0.61
107: CC(=O)Nc1cccc(OCCOc2cccc(NC(C)=O)c2)c1
    / | 0.36
108: CCOC(=O)c1c(NC(=O)COc2c(F)c(F)cc(F)c2F)sc(C(=O)N(CC)CC)c1C
    / | -0.4
109: CC(C#N)(Cc1ccccc1)Nc1ccc(Cl)cc1 (centres undefined)
    -1 | -0.085
110: CCCn1c2ccccc2c2cnn(CC(=O)N(C)c3ccccc3)c(=O)c21
    0.65 | 1.6
111: Cc1ccc(O)c(-c2cc(-c3ccc(C(C)(C)C)cc3)n[nH]2)c1
    2.7 | -0.2
112: Nc1c(C(=O)c2ccc(Br)cc2)sc2nc(-c3cccs3)ccc12
    0.65 | 0.2
113: CN(C)c1nc(C(=O)OCCO)nc(N(C)C)n1
    -1.5 | -0.06
114: COC(=O)CCC1(C(=O)O)CCOC(C)(C)C1 (centres undefined)
    -1.1 | /
115: CC(C)(C)OC(=O)NC(Cc1cnc[nH]1)C(=O)NNC(=O)c1ccc(Br)o1 (centres undefined)
    / | 0.42
116: CC1CCN(CC(C)OC(=O)c2ccco2)CC1 (centres undefined)
    0 | -0.095
117: Cc1ccc2cc(CNCc3cccnc3)c(=O)[nH]c2c1
    -0.15 | /
118: CC1(C)CC2CC(C)(CN2C(=O)Cn2nc(C(=O)O)c3ccccc3c2=O)C1 (centres undefined)
    -2 | /
119: Cc1cc(C)c2[nH]c(O)c(N=NC(=S)NCC3CCCO3)c2c1 (centres undefined)
    0.05 | /
120: CCOC(=O)CNc1nc(Cl)nc(Nc2ccccc2)n1
    -0.25 | /

Profiles as entered above. Order of values: AID504770, Ba CapD inh
Cc1nc2c3ccccc3[nH]c(=O)n2n1 reads -1.1, /
COC(=O)c1cnn(-c2ccccc2)c1/C=N/O reads 0.5, 0.21
CCOC(=O)CNc1nc(Cl)nc(Nc2ccccc2)n1 reads -0.25, /
COCc1cc(OC(=O)N(C)C)nc(Cc2c(Cl)cccc2Cl)n1 reads -0.35, 0.55
O=C(Cn1c(=O)oc2ccccc21)NCCN1CCc2ccccc2C1 reads -0.95, 1.1

Along the list, as entered above.
Ba CapD inh for entries 94 to 103, in order: -0.13&94, 0.75, /, 0.33, /, /, 0.89, 0.45, -0.14, -0.74
